TRPML1 ag: agonists of human TRPML1 channel; TRPML1-expressing cells, Ca2+ dye fluorescence, FDSS; host cell line not named in the record; reference of the full effect not given here; activation, % (test concentration not listed); 0.12% of 410,000 active; AID 624414; in the data active = activation above about 50%; inconclusive = about 30% to 50%; inactive = below about 30%; note: 0% is about no effect; the text of the record puts the active cut at 80%
Target sequence (Q9GZU1 whole entry, looked up): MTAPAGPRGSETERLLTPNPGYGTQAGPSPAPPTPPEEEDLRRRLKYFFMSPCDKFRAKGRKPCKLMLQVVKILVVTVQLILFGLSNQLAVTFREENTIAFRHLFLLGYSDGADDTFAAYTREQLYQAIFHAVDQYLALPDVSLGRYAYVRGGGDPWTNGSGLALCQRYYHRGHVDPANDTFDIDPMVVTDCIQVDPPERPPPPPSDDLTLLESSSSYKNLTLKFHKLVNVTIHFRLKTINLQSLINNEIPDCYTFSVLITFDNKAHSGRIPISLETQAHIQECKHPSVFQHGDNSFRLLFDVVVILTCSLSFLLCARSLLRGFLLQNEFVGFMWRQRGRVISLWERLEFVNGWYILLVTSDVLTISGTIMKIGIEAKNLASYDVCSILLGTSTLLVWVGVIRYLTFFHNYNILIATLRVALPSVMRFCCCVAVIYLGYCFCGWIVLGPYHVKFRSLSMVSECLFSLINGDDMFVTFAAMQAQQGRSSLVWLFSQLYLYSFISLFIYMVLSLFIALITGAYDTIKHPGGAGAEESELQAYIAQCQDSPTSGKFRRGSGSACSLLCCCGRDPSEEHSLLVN
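Cells: TRPML1-DL, 1X Tet inducer, ~16 h at 37 degrees C/5% CO2. Dye: ABD Ca8 no-wash + quencher, 45-90 min RT. Read: 10 s baseline, compound add, 110 s agonist phase; 54-4 EC80 (4uM final), 110 s antagonist phase.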
Menin MLL FP FL: inhibitors of human menin-MLL interaction, wild-type MLL peptide; FP activity change, % at 61.4 µM; Fluorescence polarization, fluorescein-MLL peptide displacement from menin; 290,000 tested, under 10 active; inconclusive = falling polarisation curve, or a change in total fluorescence; inactive = total fluorescence flat and polarisation flat or rising; no compound was filed as active; the % refers to the polarisation; negative = inhibition;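 note: % of control where 0% means no effect; inhibitors lower the polarisation; unlabelled MLL peptide was the positive control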
gsp ag: agonists of gsp mutant (McCune-Albright syndrome) | 0.13% of 340,000 active | Potency, µM (doses to about 76.9 µM), for the others: at the highest dose activation (cAMP increase), usual class: activators | AID 624287 | gsp mutant cells, cAMP HTRF, 30 min; control for the full effect not named in the record; active = well fitted activation curve with a large enough effect; inconclusive = small, poorly fitted or top-dose-only effect, or another doubt; inactive = no such curve, though single readings can be large or run the other way; cell line not stated here;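 note: phosphodiesterase inhibitor Ro 20-1724 added with compounds to block cAMP breakdown; potency is the fitted concentration of half-maximal effect; nearly all actives have a fitted effect of over 60% in size; about a fifth of the inactives were tested at one dose only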
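Cells in DMEM/10% FBS with G418 were pretreated with compounds in DMSO plus […] (300 uM stock) for 30 min at 37C. cAMP was measured by HTRF (cAMP-d2 plus anti-cAMP antibody-K) after 30 min at room temperature.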
TRPML1 blocker: blocks the human TRPML1 channel. Q9GZU1. TRPML1-inducible cells, Ca2+ dye fluorescence, FDSS; active compounds read low; inhibition of EC80 agonist-evoked calcium signal. activity change, negative = inhibition, % (concentration not given with the values). 0.02% of 390,000 active. AID 624415; in the data active means activity change below about -50%; inconclusive means about -30% to -50%; inactive means above about -30%;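 note: stimulus is agonist 54-4 at its EC80 concentration; % is set by controls: 0 for no effect and ±100 for the full control effect; the text of the record puts the active cut at -80%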
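Tet-induced TRPML1-DL cells loaded with Ca8 no-wash calcium dye were read kinetically on FDSS. Compound addition was followed by EC80 agonist 54-4 (4 uM final); inhibition was read over 110 s.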
ClpP mod: qHTS Assay for Activators of ClpP; ATP-dependent Clp protease proteolytic subunit (Bacillus subtilis (strain 168)), P80244; Potency, µM (highest dose often 57.5 µM), without a hit: at the top dose activity change, negative = active; 1.9% of 340,000 active; purified B. subtilis ClpP, FRET peptide cleavage, 20 min; active = well fitted falling curve with a large enough effect; inconclusive = small, poorly fitted or top-dose-only effect; inactive = no such curve, though single readings can be large or run the other way; note: potency is the fitted concentration of half-maximal effect; the source files actives as falling curves though it sought activators and does not explain the sign; nearly all actives have a fitted effect of over 65% in size; many hits overshoot -100%
Target sequence (P80244 whole entry, looked up): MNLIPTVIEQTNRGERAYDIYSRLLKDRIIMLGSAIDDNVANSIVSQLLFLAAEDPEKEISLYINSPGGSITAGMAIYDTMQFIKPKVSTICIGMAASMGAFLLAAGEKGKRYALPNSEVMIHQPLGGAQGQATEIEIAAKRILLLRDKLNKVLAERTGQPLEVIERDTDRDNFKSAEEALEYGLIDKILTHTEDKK
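FRET quenching reversal measured ClpP activation: 10 microg/mL B. subtilis ClpP at pH 8 with the FRET-FV decapeptide, read at 430 nm after 320 nm excitation. The 20-min minus 0-min signal was scaled between DMSO/no-enzyme wells and ADEP (5.8 microM final).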
gsp antag: gsp mutant antagonism. Potency, µM (doses to about 76.9 µM), inactives show top-dose activity change, negative = inhibition, most hits filed as inhibitors. 0.4% of 340,000 active. gsp-mutant cells, cAMP HTRF, 30 min; control for the full effect not named in the record; active = falling curve of any shape with a large fitted effect; inconclusive = falling curve, mostly with a smaller effect; inactive = flat or rising curve; cell line not stated here;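 note: intracellular cAMP measured with PDE inhibitor Ro 20-1724 present during compound exposure; potency is the fitted concentration of half-maximal effect; % is set by controls: 0 for no effect and ±100 for the full control effect; nearly all actives have a fitted effect of over 65% in size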
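Cells in G418 medium, seeded 16-24 h, 37C; buffer exchange to DPBS + 1 mM CaCl2, 0.5 mM MgCl2, 0.05% BSA; cpds in DMSO + […] (300 uM stock), 30 min 37C; HTRF cAMP detection.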
Starred values were filed as active, the others as inactive; ? = inconclusive; / = not tested or not shown; & = joins results of further samples; [ ] = remark or other dose.

nr	Compound	TRPML1 ag	Menin MLL FP FL	gsp ag	TRPML1 blocker	ClpP mod	gsp antag
1	Cc1nc(Cc2nnc(SCC(=O)N3CCN(c4ccccc4)CC3)o2)cs1	-0.2	/	-2%	1	1.9%	6%
2	CC1CCCC(C)N1CC(O)COc1ccc(Cl)cc1 (centres undefined)	0.5	1.5	-6%	16	-0.5%	13%
3	C=CCn1c(N)cc(=O)nc1SCC(=O)Nc1ccc(C)cc1	-0.4	-1.2	2%[15.4 µM]	-10	0.6%	-3%
4	Cc1ccc(N2C(=O)c3ccccc3C2(O)c2ncc[nH]2)cc1 (centres undefined)	1.8	0.2	-51%[inhibitor]	-5	-1.6%	8%
5	COc1ccccc1-n1c(N)c(C(N)=O)sc1=S	-0.4	-2.7	-37%[inhibitor]	-1	-4.4%	-7%
6	Cn1c(C(=O)c2ccncc2)cc2ccccc21	1.5	2.7	-26%	-12	-0.1%	-11%
7	Cc1ccc(Nc2nnns2)cc1C	1.6	1.7	6%	-4	-3.8%	-8%
8	Cc1ccc(C2(C)NC(=O)N(CC(=O)NC(C)c3ccccc3)C2=O)cc1 (centres undefined)	-0.1	2.4	4%	-17	/	2%
9	C[C@H]1CCC(=O)N(CCSc2ccc(Br)cc2)CC1	1.5&-0.8	/	16%	43	0.9%&1.3%	-14%
10	COc1cccc(/C=C/C(=O)OCC(=O)Nc2nnc(-c3ccccc3)o2)c1	2.7	/	47%[15.4 µM]	-1	/	-10%
11	CCOc1ccccc1CNC(=O)C1CCN(S(=O)(=O)c2ccc3c(ccn3C)c2)CC1	2.1	/	/	-8	-11%	/
12	CCN1C(=O)C(CC(=O)Nc2ccc(OC)cc2)N(CCc2ccc(OC)cc2)C1=S (centres undefined)	3.1	-1.5	14%[15.4 µM]	27	/	-11%

(continued)
nr	Compound	TRPML1 ag	Menin MLL FP FL	gsp ag	TRPML1 blocker	ClpP mod	gsp antag
13	COc1cc(OC)c(OC)cc1/C=N/NC(=O)CC1C(=O)NN=C1C (centres undefined)	-0.5	1.1	-42%[inhibitor]	14	28µM*	7%
14	COc1ccc(-c2cn3c(n2)sc2cc(C(=O)NCCCc4ccccc4)ccc23)cc1	-0.1	/	/	7	5.0%	/
15	COc1cc(C2N(c3cc(C)on3)C(=O)C3CCCN32)cc(OC)c1OC (centres undefined)	0.6	0.4	-5%	0	-7.4%	8%
16	O=C(NCc1cccc(Cl)c1)C1CCCO1 (centres undefined)	-0.6	-0.7	5%[15.4 µM]	-5	-0.5%	6%
17	COC(=O)c1ccccc1NC(=O)C1=C(C)C(=O)OC12CCCCCC2	1.3	/	/	-2	-1.8%	/
18	CCCc1c(C(=O)Nc2cc(C)on2)cnn1-c1ccccc1	1.7	6.3	-12%[15.4 µM]	14	-0.1%	-29%
19	COc1cc(C2C(C#N)=C(N)N(N(C)C)C3=C2C(=O)CC(C)(C)C3)ccc1O (centres undefined)	0.9	-2.0	-53%[inhibitor]	-19	-0.5%	-11%
20	OCC1CCCCN1C(=S)NCc1ccco1 (centres undefined)	2.8	2.2	-12%	-11	-1.0%	11%
21	CCN(CC)CCCNC(=O)c1nn(-c2ccc(OC)cc2OC)c(=O)c2ccccc12	-0.7	-0.9	-1%	3	-23%	3%
22	CC(C)OC(=O)CSc1nnc(-c2cccnc2)n1Cc1ccccc1	-1.0	0.6	-31%[inhibitor]	-16	-1.7%	-3%
23	Cc1coc2cc3oc(=O)c(CCC(=O)NCc4ccc(Cl)cc4)c(C)c3cc12	-1.0	/	/	-24	?	/
24	COc1cc(OC)cc(-c2c(-c3cccs3)c3cc(-c4ccc5c(c4)OCCO5)ccc3n2C)c1	-0.6	/	/	-11	4.5%	8%

Other results follow.
nr	Compound	TRPML1 ag	Menin MLL FP FL	gsp ag	TRPML1 blocker	ClpP mod	gsp antag
25	COc1ccc(-c2cn3ccc(C)cc3n2)cc1	1.0	-7.7	-4%	-11	4.2%	-7%
26	CNC(=O)C12CC3CC(C1)CC(c1ccc(C)cc1)(C3)C2	-0.9	-1.0	-1%[15.4 µM]	56	-2.1%	8%
27	O=C(c1ccccc1C(=O)N(c1ccccc1)c1ccccc1)N1CCCCC1	2.7	/	-77%[inhibitor]	2	0.7%	2%
28	Cc1ccc(NC(=S)N(CCCN2CCCC2)Cc2cccn2Cc2ccc(Cl)cc2)cc1Cl	0.1	4.5	-42%[15.4 µM]	42	/	9%
29	O=C(CN1CCN(S(=O)(=O)c2cc(Cl)ccc2Cl)CC1)Nc1ccc2c(c1)OCCO2	0.1	0.8	14%	0	1.2%	7%[15.4 µM]
30	c1cncc(-c2noc(-c3ccc4ccccc4c3)n2)c1	1.8	-0.1	3%	17	-0.2%	9%
31	COC(=O)CN1C(C)=Nc2ccc(C)cc2C1c1ccccc1 (centres undefined)	0.7	-1.7	18%[15.4 µM]	7	/	3%
32	N#C/C(=C\c1ccc(N2CCCCC2)o1)C(N)=O	7.8	?	-30%	17	/	?
33	O=S(=O)(NCCSc1ccccn1)c1ccc(Cl)cc1	0.3	-3.6	8%[15.4 µM]	26	-0.6%	1%
34	O=C(CN1CCN(Cc2cccc3ccccc23)CC1)NCCc1ccccc1	0.8	-0.2	2%	-9	/	-19%
35	O=C(Nc1ccncc1)C1CCN(S(=O)(=O)c2ccccc2)CC1	-0.2	/	14%[15.4 µM]	14	/	7%
36	CCCOc1ccc(C2CC(=O)Nc3c2c(C)nn3-c2nncc(-c3cccc(OC)c3)n2)cc1OC (centres undefined)	2.2	/	/	-24	-5.2%	/

The results go on:
nr	Compound	TRPML1 ag	Menin MLL FP FL	gsp ag	TRPML1 blocker	ClpP mod	gsp antag
37	COc1ccc(Cl)cc1C(=O)NCC(c1ccco1)N1CCCC1 (centres undefined)	-0.8	3.3	43%	2	-9.1%	10%
38	O=C(NCc1ccccc1)c1ccc(Cl)cc1[N+](=O)[O-]	4.3	-0.6	8%	-12	-0.8%	16%
39	CC1(C)CC(=O)C(C(=O)c2ccccc2)C(=O)C1Cl (centres undefined)	0.2	0.2	3%	-5	0.6%	13%
40	Cc1ccccc1C(=O)NC1CCN(CC(=O)Nc2c(C)cccc2C)CC1	-0.3	3.8	-4%	0	1.2%	-6%
41	Cc1cccc(OCC(=O)Nc2ccc(NC(=O)c3ccco3)c(C)c2)c1	0.6	-1.9	14%[15.4 µM]	15	/	-11%
42	O=C(O)c1nccnc1C(=O)Nc1ccccc1N1CCOCC1	0.3	1.6	3%[15.4 µM]	7	/	11%
43	Cc1sc2c(c1C)c(=O)n(Cc1ccccc1)c(=O)n2CC(=O)Nc1cccc(Cl)c1	2.6	/	/	73	-2.5%	/
44	O=S(=O)(NCc1csc(-c2cccnc2)n1)c1ccc(Cl)s1	-0.5	8.4	-22%	-12	-7.7%	-3%
45	Cc1ccc(CN2CCN(CCCn3cnc4c(OCc5ccccc5)ncnc43)CC2)cc1	0.4	/	/	-7	-3.3%	-8%
46	CCN(CC(=O)Nc1c(F)cccc1F)C(=O)c1nc2nc(C)cc(C)n2n1	-0.1	/	-8%	-15	-1.2%	14%
47	COCCCN1C(=O)C(=O)/C(=C(/O)c2ccc(OCC(C)C)cc2)C1c1cccnc1 (centres undefined)	0.1	-0.4	4%	15	-0.8%	18%
48	O=C(NCCS(=O)(=O)c1ccc(Br)cc1)c1ccc(F)cc1	0.6	-3.3	-31%[inhibitor]	-1	1.1%	10%

The results go on.
nr	Compound	TRPML1 ag	Menin MLL FP FL	gsp ag	TRPML1 blocker	ClpP mod	gsp antag
49	Cc1ccc(Cn2c(=O)n(Cc3ccccc3Cl)c(=O)c3ccccc32)cc1	0.0	/	/	15	-2.4%	/
50	Cc1ccc(Br)cc1S(=O)(=O)Nc1cccnc1	-0.2	0.3	1%	11	0.1%	9%
51	Cc1ccc2oc(C(=O)NCC(c3ccco3)N3CCCC3)c(C)c2c1 (centres undefined)	0.9	/	4%	1	?	10%
52	CCN(C(=O)CSc1nnc(COc2ccccc2F)n1N)c1c(N)n(Cc2ccccc2)c(=O)[nH]c1=O	0.2	/	20%	4	-1.2%	-3%
53	COc1cc(NC(=S)NCc2cccnc2)cc(OC)c1OC	-0.1	-0.8	-26%	3	-3.9%	15%
54	O=C(/C=C/c1ccc(Br)cc1)NC(=O)c1ccccc1O	-0.5	-3.5	-5%[15.4 µM]	5	/	/
55	Cc1cc(C)n(C2CCCCC2OC(=O)c2ccccc2)n1 (centres undefined)	6.1	-0.4	-5%	19	1.4%	-6%
56	Cc1ccc2nc(SC(C)C(=O)N3CCCCC3)[nH]c2c1 (centres undefined)	-0.4	-3.2	-56%[inhibitor]	-6	-2.8%	-5%
57	CCC(C)(C(=O)NC1CCCC1)N(CC1CCCO1)C(=O)c1ccc2c(c1)OCO2 (centres undefined)	-1.0	4.9	-19%	19	1.4%	11%
58	O=C(O)Cc1ccc(Nc2cnn(C34CC5CC(CC(CC(=O)O)(C5)C3)C4)c(=O)c2Cl)cc1	-0.7	4.2	9%[15.4 µM]	-3	/	5%
59	COc1ccccc1N1CCN(C(=O)Cn2ncc3c([nH]c4ccccc43)c2=O)CC1	-0.5&2.6	-0.4	4%	10&3	-13%&-5.1%	3%
60	CN(C(=O)c1cccc(NC(=O)Cc2ccc(NC(=O)C3CCCN(C(=O)C4CCC4)C3)cc2)c1)C1CCC1 (centres undefined)	0.7	/	/	-10	1.1%	-1%

(more compounds)
nr	Compound	TRPML1 ag	Menin MLL FP FL	gsp ag	TRPML1 blocker	ClpP mod	gsp antag
61	N#Cc1ccsc1NC(=O)COc1ccc(-c2nnco2)cc1	0.2	?	18%	-5	-0.6%	-2%
62	COc1ccc2c(c1)CC/C(=C\c1ccc(C)o1)C2=O	2.7	?	-7%	-7	-1.9%	?
63	Cc1ccc(C2CC(=O)n3nc(-c4cccc(C)c4)nc3S2)cc1 (centres undefined)	0.4	/	/	13	0.7%	/
64	COCCNC(=O)CSc1nc2ccccc2c(=O)n1CCC(=O)NCCc1ccc(OC)c(OC)c1	-0.5	3.3	-5%	-5	0.7%	-12%
65	CCCCCCSc1cc(C)nc2ncnn12	-0.3	0.6	26%	4	0.6%	10%
66	CSc1ccccc1NC(=O)CN1CC(C)OC(C)C1 (centres undefined)	-0.7	-1.9	-9%	0	-0.6%	6%
67	COc1ccc(N2CCN(c3cncc(C)n3)CC2)cc1	-0.6	/	/	39	0.7%	/
68	O=C(NC1CCCc2ccccc21)C1CCN(c2nnc(-n3cccc3)s2)CC1 (centres undefined)	-0.7	-0.3	?	13	3.0%	-10%
69	O=S(=O)(c1ccc(N2CCCC2)nc1)N1CCCC1	-0.4	-0.6	-7%[15.4 µM]	11	-1.2%	12%
70	COc1ccc(CCNC(=O)c2noc(C(C)C)c2[N+](=O)[O-])cc1OC	-1.4	3.5	-8%[15.4 µM]	-10	-2.2%	9%
71	Cc1ccc(C(=O)N/C(=C/c2ccc(-c3cccc([N+](=O)[O-])c3)o2)C(=O)NC(C)C)cc1	-1.4	2.7	-13%	-15	1.3%	0%

Compound activity deposited in PubChem by National Center for Advancing Translational Sciences (NCATS).
